Screening data (PubChem)
HPGD inh = blocks human HPGD enzyme activity; purified HPGD, NADH fluorescence kinetic, PGE2 substrate; Potency, µM, for inactives: at the top dose activity change, negative = inhibition, usual class: inhibitors; 150,000 compounds, 4.3% hits; active = well fitted inhibition curve with a large enough effect (not every such curve was filed as active); inconclusive = small, poorly fitted or top-dose-only effect, or another doubt; inactive = no such curve, though single readings can be large or run the other way;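 further: top concentration of the series not given in the record; plate controls included wells without enzyme; inactives centre near -10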
Target sequence (P15428 whole entry, looked up): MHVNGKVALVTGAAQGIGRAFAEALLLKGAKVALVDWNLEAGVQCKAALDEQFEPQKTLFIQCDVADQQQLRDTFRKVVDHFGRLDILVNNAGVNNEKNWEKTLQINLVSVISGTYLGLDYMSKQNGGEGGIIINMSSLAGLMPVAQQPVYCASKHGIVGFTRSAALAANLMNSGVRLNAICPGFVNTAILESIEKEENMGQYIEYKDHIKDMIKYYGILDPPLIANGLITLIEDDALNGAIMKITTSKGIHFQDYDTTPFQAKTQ
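20 nM HPGD preincubated 15 min at room temperature with compound in 50 mM Tris-HCl pH 8, 0.01% Tween 20. Started with 1 mM NAD+ and 30 uM prostaglandin E2; NADH fluorescence (360/450 nm) read 5 times over 30-s intervals, last minus first.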
Active calls of the source: *; ? = inconclusive. On the % scale 0 is the no-effect control and ±100 the full control effect; potency means the concentration at half of the fitted maximal effect. This is a subset. The share of hits here may be higher or lower than overall.

SMILES	HPGD inh
CCN(CC)S(=O)(=O)c1ccc(NC(=O)COC(=O)c2ccc(-n3nc(C)cc3C)cc2)cc1	?
C#CCOCCOCCOCCNc1nc(N2CCN(C(=O)[C@H]([C@@H](C)O)n3cc(CCCCN)nn3)CC2)nc(N2CCN(C(=O)[C@H](Cc3ccc(O)cc3)n3cc(CCO)nn3)CC2)n1	-8.0%
N[C@@H](Cc1cccc([N+](=O)[O-])c1)C(=O)O	-6.1%
Cc1cccc(Nc2nc(N3CCN(C)CC3)nc(N)c2[N+](=O)[O-])c1	-27.5%
Cc1cc(C)nc(Sc2ccc(/C=C(\C#N)C(=O)Nc3ccccc3)o2)n1	-22.3%
COc1ccc2c(CC(=O)OCC(=O)Nc3cc(C)c(C)cc3[N+](=O)[O-])coc2c1	-5.8%
O=C(Nc1ccccc1)c1nnn(Cc2ccccc2)c1NC(=O)C(F)(F)F	-9.9%
Cc1ccc(Cl)cc1NC(=O)COC(=O)c1ccc(COc2ccc3c(C)cc(=O)oc3c2)cc1	?
Cc1c(NC(=S)NC(=O)Cc2ccccc2)cccc1C(=O)O	-25.4%
CC1(C(=O)N(Cc2ccccc2)Cc2ccccc2)CC1(Br)Br (stereo unspecified)	-7.0%
CSc1ncc(C(=O)O)c(C)n1	-6.7%
CC(=O)C1=C(C)NC(SCC(N)=O)=C(C#N)C1c1cccnc1 (stereo unspecified)	-6.0%
Cc1cc(C)c(NC(=O)C(C)Sc2nc3ccc(N4C(=O)c5ccccc5C4=O)cc3s2)c(C)c1 (stereo unspecified)	-12.6%
Cc1ccc(CCNC(=O)C2CCC(CNc3c(N4CCCC4)c(=O)c3=O)CC2)cc1 (stereo unspecified)	25.1µM*
O=C(Cn1cncc1-c1ccc([N+](=O)[O-])cc1)Nc1ccccc1F	?
COc1ccc(CC(=O)Nc2c3c(nn2-c2ccccc2C)CS(=O)C3)cc1 (stereo unspecified)	9.9%
COc1ccccc1NS(=O)(=O)c1ccc2oc(SCc3ccc(F)cc3)nc2c1	-20.3%
O=C(CSc1nnnn1C1CCCC1)Nc1ccc2c(c1)OCO2	-1.2%
O=C(CNC(=O)c1ccccc1F)N/N=C/c1cn[nH]c1-c1ccccc1	-14.5%
CCCSc1nc(SCC(=O)NCc2ccccc2)c2c3c(sc2n1)COC(C)(CC)C3 (stereo unspecified)	-20.8%
COc1cccc(NC(=O)CN2CCN(c3ccccc3F)CC2)c1	-5.6%
CS(=O)(=O)N1CCc2cc(S(=O)(=O)Nc3ccc4oc5c(c4c3)CCCC5)ccc21	-9.4%
COC(=O)c1ccc(Cl)c(NC(=O)c2ccc(-c3ccccc3)cc2)c1	-9.8%
COc1cc2nc(SCc3ccc(Cl)cc3Cl)n(Cc3cccs3)c(=N)c2cc1OC	?
C=CCSc1nnc(NC(=O)c2cccc(S(=O)(=O)N(C)c3ccccc3)c2)s1	?
COc1ccc(C2NC(=S)NC3=C2CCc2cc(OC)ccc23)cc1 (stereo unspecified)	-18.2%
CCCC(C)NS(=O)(=O)c1ccccc1 (stereo unspecified)	-10.2%
CCc1nc2cc([N+](=O)[O-])c([N+](=O)[O-])cc2[nH]1	-9.0%
Cc1cccc(OCC(=O)Nc2ccccc2C(=O)N2CCOCC2)c1	4.3%
C/C(=N/n1cnnc1)c1cccnc1	-8.7%
Cc1cccc(N2CCN(C(=O)c3cn(C)c(=O)c4c3c3ccccc3n4C)CC2)c1C	-22.3%
COc1cc(OC)cc(-n2nnnc2SCC(=O)N2CCCC2)c1	-13.0%
CCOC(=O)c1c(NC(NC(=O)C(C)C)C(Cl)(Cl)Cl)sc2c1CCC2 (stereo unspecified)	-7.1%
CCOC(=O)c1oc2nc3c(cc2c1N)COC(C)(C)C3	?
Cn1cnnc1SCC(=O)Nc1ccc2nc(SCc3cccc4ccccc34)sc2c1	-16.9%
CC1(C)CC(=O)C=C(OC(=O)c2ccc(Cl)cc2)C1	14.1µM*
CC(NC(=O)CSc1nc2ccccc2c(=O)[nH]1)c1ccccc1 (stereo unspecified)	-13.5%
COC(=O)c1cc(NC2c3ccccc3C(=O)N2CCN2CCOCC2)cc(C(=O)OC)c1 (stereo unspecified)	-12.4%
COCc1[nH]nc2c1C1(CCC3(CC1)OCCO3)C(C#N)=C(N)O2	-6.2%
Cc1c(N=CN2CCOCC2)c(=O)n(C)c(=O)n1C	-10.5%
CCn1c(SCC(=O)O)nnc1-c1cc2c(C)nn(-c3ccccc3)c2s1	?
CCOC(=O)c1c(N)sc(C(=O)N2CCCC(C(N)=O)C2)c1C (stereo unspecified)	-4.9%
O=C(C1=C(O)C(=O)N(CCN2CCOCC2)C1c1cccnc1)c1cc2ccccc2o1 (stereo unspecified)	-11.4%
CCOC(=O)C1CCCN(Cc2sccc2C)C1 (stereo unspecified)	2.8%
Cc1nn(Cc2ccccc2Cl)c2sc(C(=O)NCCCn3ccnc3)cc12	-7.3%
CCOC(=O)CC(=O)Nc1cc(Cl)ccc1O	?
O=[N+]([O-])c1ccc(-c2nnc(-c3ccccc3)c(NCCCO)n2)cc1	-18.1%
Cc1ccc(C2(C(F)(F)F)NC(=O)N3C(=C2C#N)Nc2ccccc23)cc1 (stereo unspecified)	-12.6%
O=C(Nc1nc2ccc(SC(F)F)cc2s1)c1ccc2c(c1)S(=O)(=O)c1ccccc1C2=O	-12.6%
Cc1cccc(NC(=O)CSCc2c(C)noc2C)c1C	-4.6%
O=C(Nc1ccc(F)cc1)N(Cc1ccco1)Cc1cc2cc3c(cc2[nH]c1=O)OCO3	?
CN(c1ccc(C(=O)O)cc1)S(=O)(=O)c1ccccc1	-4.4%
Cc1ccc(S(=O)(=O)/N=C(\N)Nc2nc(C)c3ccc(C)cc3n2)cc1	-19.9%
O=C(CN1C(=O)C2CC=CCC2C1=O)Nc1ccc(S(=O)(=O)NC2=NCCCCC2)cc1 (stereo unspecified)	-10.5%
CCOc1ccc(N(CC(=O)NC2CCCCCC2)S(=O)(=O)c2c(C)[nH]c(=O)[nH]c2=O)cc1	-4.3%
CCCCCCn1c(=O)[nH]c2nc3cc(N)c(C)cc3nc2c1=O	?
C=CCNC(=O)C12CC3CC(C1)CC(C(=O)NCC=C)(C3)C2	-11.4%
CCc1ccc(C2CC(c3cccc(OC)c3)n3nc(N)nc3N2)cc1 (stereo unspecified)	-10.3%
O=c1[nH]nc(CNc2ccc(O)cc2)c2ccccc12	-5.1%
CCOC(=O)C1CCN(S(=O)(=O)c2cccc(-c3cn4ccccc4n3)c2)CC1	-15.3%

(further entries)
SMILES	HPGD inh
CS(=O)(=O)N1N=C(c2ccc(Br)cc2)CC1c1cccs1 (stereo unspecified)	-1.6%
O=C(O)c1ccc2c(c1)C(=O)N(C(Cc1ccccc1)C(=O)O)C2=O (stereo unspecified)	-19.6%
Cn1cc(C(=O)c2ccccc2)cc1-c1nc2ccccc2n1C	?
CCC(C)(C)n1nnnc1CN1CCC(NC(=O)c2ccc(Br)cc2)CC1	-12.8%
O=C(C[n+]1cccc(CNC(=O)c2ccc(OC(F)F)cc2)c1)Nc1ccc(F)cc1	-8.3%
COc1ccc(C(=O)OC(C(=O)c2ccccc2)c2ccccc2)cc1 (stereo unspecified)	-19.3%
COc1ccc(NC(=O)CN2C(=O)C(C)Oc3ccccc32)cc1 (stereo unspecified)	-15.1%
Cc1ccc(S(=O)(=O)n2cnc3cc([N+](=O)[O-])ccc32)cc1C	-0.1%
Cc1ccc(S(=O)(=O)/N=S(\C)C(C)C)cc1 (stereo unspecified)	-6.5%
N#CCCN(CCC#N)c1nncs1	-0.1%
Cc1cc(C)c(C#N)c(SCCS(=O)(=O)c2ccc(C(C)(C)C)cc2)n1	14.1µM*
CCCCN1CCc2c1nc1ccc(Br)cc1c2N	4.9%
CCC(=O)Nc1ccc(N2CCCCC2)c(C(=O)Nc2ccccc2C)c1	0.7%
Oc1ccc(Br)cc1-c1cc(-c2ccc(Cl)cc2)n[nH]1	?
CCCC(=O)NCCc1cc(OC)c(OC)cc1Br	-13.4%
COc1ccc(NC(=O)CSc2nnc(-c3ccccc3)n2Cc2ccco2)c(OC)c1	-12.1%
O=C(NC1(C(F)(F)F)NC(=O)N(Cc2cccnc2)C1=O)c1ccc(F)cc1 (stereo unspecified)	-6.8%
CCOC(=O)N/N=C(C)/C=C/c1ccccc1	1.5%
Cc1ccc(SCCC(=O)Nc2ccc(Br)c(C)c2)cc1	-15.1%
Cc1noc(C)c1S(=O)(=O)N1CCC(C(=O)N2CCN(C3CCCC3)CC2)CC1	-15.4%

Laid out differently: results already given
SMILES,HPGD inh
O=C(NC1(C(F)(F)F)NC(=O)N(Cc2cccnc2)C1=O)c1ccc(F)cc1 (stereo unspecified),-6.8%
CCCC(=O)NCCc1cc(OC)c(OC)cc1Br,-13.4%
CCCSc1nc(SCC(=O)NCc2ccccc2)c2c3c(sc2n1)COC(C)(CC)C3 (stereo unspecified),-20.8%
O=C(Nc1ccccc1)c1nnn(Cc2ccccc2)c1NC(=O)C(F)(F)F,-9.9%
Cc1nn(Cc2ccccc2Cl)c2sc(C(=O)NCCCn3ccnc3)cc12,-7.3%
COc1cc(OC)cc(-n2nnnc2SCC(=O)N2CCCC2)c1,-13.0%

Going on with the list:
SMILES	HPGD inh
COC(=O)c1ccc(COC(=O)c2ccc(N(C)C)cc2)cc1	?
COc1ccc(-c2nn(-c3ccccc3)cc2/C=N/NS(=O)(=O)c2ccccc2)cc1	-25.1%
Cc1cccc(C)c1OCc1nnc(SCC(=O)Nc2nccs2)n1-c1ccccc1	-6.2%
CC(NC(=O)Cn1c(NCCO)nc2ccccc21)c1ccccc1 (stereo unspecified)	-1.4%
O=C(NC(=S)Nc1ccc(S(=O)(=O)N2CCCCCC2)cc1)c1cccs1	-15.2%
COc1ccnc(N=CNOCc2cccc(Cl)c2Cl)c1C#N	-13.2%
COc1ccc(N(CC(=O)N2CCC(C)CC2)S(=O)(=O)c2c(C)nn(C)c2C)cc1	-0.7%
O=C(Nc1ccc(S(=O)(=O)N2CCCC2)cc1Cl)C1=COCCO1	-2.0%
Cc1ccc(-c2cc(C(=O)N/N=C/c3c[nH]c4ccccc34)[nH]n2)cc1	?
Cc1cc(C)c(C#N)c(SCC(=O)c2cc(C)n(CCc3ccccc3)c2C)n1	-27.2%
O=C(NCc1ccco1)C1CCN(C(=O)c2cc3sccc3n2Cc2ccc(Cl)cc2)CC1	-6.4%
CCCCOC(=O)Nc1nnc(CCc2ccccc2)s1	-19.9%
CCOC(=O)Cc1nnc(NC(=O)c2cccc(OCC)c2)s1	-8.4%
O=C(NCC1CCCO1)C1CCCN(Cc2cnn(-c3ccccc3)c2-n2cccc2)C1 (stereo unspecified)	-10.6%
CC(=O)N1CCN(C(C)=O)C1c1ccccc1	-3.5%
CNC(=O)CSc1nc2c(c(=O)n(C)c(=O)n2C)n1Cc1ccc(C)cc1	-15.9%
O=[N+]([O-])c1ccc(N2CCCCC2)cc1N1CCOCC1	-15.4%
CC(Sc1nnnn1-c1ccccc1)C(=O)Nc1ccc(Cl)cn1 (stereo unspecified)	-11.9%
Cc1cccc(N2CCN(C(=O)CCCOc3ccccc3)CC2)c1C	-9.4%
CC(=O)c1cc(C)ccc1OC(=O)c1ccco1	-11.6%

Four entries from above, field by field:
compound: Cc1cccc(C)c1OCc1nnc(SCC(=O)Nc2nccs2)n1-c1ccccc1
  HPGD inh: -6.2%

compound: CC(NC(=O)Cn1c(NCCO)nc2ccccc21)c1ccccc1 (stereo unspecified)
  HPGD inh: -1.4%

compound: O=C(NC(=S)Nc1ccc(S(=O)(=O)N2CCCCCC2)cc1)c1cccs1
  HPGD inh: -15.2%

compound: COc1ccnc(N=CNOCc2cccc(Cl)c2Cl)c1C#N
  HPGD inh: -13.2%

Next section.
SMILES	HPGD inh
Cc1cc(C)cc(N(C(C)C(=O)NCCC2=CCCCC2)S(C)(=O)=O)c1 (stereo unspecified)	-9.7%
Clc1ccc(Cn2ncc3c(N4CCOCC4)ncnc32)cc1	-3.5%
Cc1ccc(CCN2CC(C(=O)O)CC2=O)cc1 (stereo unspecified)	0.8%
CCN(CC)S(=O)(=O)c1ccc(C(=O)NCc2n[nH]c(=S)n2-c2ccccc2OC)cc1	-13.4%
S=C(NCc1ccc2[nH]c3c(c2c1)CCCC3)Nc1ccccc1	-15.0%
COc1cc(C(=O)N2CCC(NC(=O)C(Cc3ccccc3C)NC(C)=O)CC2)cc(OC)c1OC (stereo unspecified)	-4.3%
COc1ccc(CNC(=O)CSc2nnc(C)s2)cc1	-5.9%
NC(=O)Cn1cnc(-c2ccccc2)c1	-4.9%
CCOC(=O)CNC(=O)CSc1nc2cccnc2n1C1CCCCC1	-13.2%
CC1(NC(=S)NCCO)CCS(=O)(=O)C1 (stereo unspecified)	2.9%
COc1cc(/C=N\Nc2cc(=O)n(C)c(=O)n2C)ccc1O	?
COc1ccc(C)cc1-n1nnnc1SC/C(O)=C(\C#N)c1nc2ccccc2[nH]1	-5.9%
CCOc1ccccc1-n1nnnc1SCC(=O)NC(=O)Nc1ccc2c(c1)OCCO2	-14.5%
COc1ccc(/C=C2\SC(=O)N(CCNC(=O)CCS(=O)(=O)c3ccc(C)cc3)C2=O)cc1	-23.1%
Fc1ccccc1CSc1nc2ncccc2[nH]1	17.8µM*
COc1cc(C)c(S(=O)(=O)N2CCN=C2c2ccccc2)cc1C	-11.4%
C/C(=C\C(=O)Nc1cc(C)on1)c1ccccc1	-19.7%
CCOC(=O)N1CCN(C(=O)c2ccccc2CCc2ccccc2)CC1	-6.1%
O=C1CC(c2ccccc2)=Nc2ccccc2N1	-9.7%
CN1CCN(c2ccccc2NC(=O)COc2ccc(Br)cc2)CC1	-7.3%
O=C(NC(=S)Nc1cccc(CO)c1)c1ccc(-c2ccccc2)cc1	-10.7%
Cc1cccc2cc(CN(Cc3ccc(F)cc3)C(=O)N(C)C)c3nnnn3c12	-3.0%
CC(=O)Nc1ccc(OCC(O)Cn2c3ccccc3c3ccccc32)c(C)c1 (stereo unspecified)	25.1µM*
Nc1ccc2oc3ccc(N)cc3c(=O)c2c1	-2.3%
